Screening results deposited in PubChem by The Scripps Research Institute Molecular Screening Center.
PAFAH1B3 inh = inhibitors of human PAFAH1B3; AID 492972; 0.28% of 340,000 active; recombinant PAFAH1B3, FP-rhodamine probe, fluorescence polarization; inhibition, % at 3.39 µM;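 active means inhibition above the screen-wide average of all tested compounds plus 3 SD, cut at about 25% in these data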;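 further: 0% = enzyme with DMSO only and 100% = wells lacking PAFAH1B3 protein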
Target sequence (Q15102 whole entry, looked up): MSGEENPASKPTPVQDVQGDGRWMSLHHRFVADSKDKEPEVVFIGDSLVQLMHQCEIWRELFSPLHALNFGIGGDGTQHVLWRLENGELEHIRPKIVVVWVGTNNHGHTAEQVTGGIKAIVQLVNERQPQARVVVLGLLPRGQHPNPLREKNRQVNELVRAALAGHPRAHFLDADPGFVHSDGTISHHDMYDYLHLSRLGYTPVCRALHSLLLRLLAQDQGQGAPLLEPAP
EBNA-1 inhibitor = blocks EBNA-1 binding to DNA. EBNA-1 DNA binding, fluorescence polarization. inhibition, % at 14.8 µM. 0.34% of 300,000 active. AID 1950; in the data active means inhibition above about 28%
LYPLA1 inh = LYPLA1 (human) inhibition in PME1 counter-screen | O75608 | recombinant LYPLA1, FP-Rh probe fluorescence polarization | inhibition, % at 5.9 µM | 0.16% of 320,000 active;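 active means inhibition above the mean of all tested compounds plus 3 SD, set per campaign, cut at about 14% in these data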;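 further: inhibitors block serine hydrolase probe labeling of LYPLA1 so polarization falls; 0% = enzyme with DMSO and 100% = wells lacking LYPLA1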
Target sequence (O75608 whole entry, looked up): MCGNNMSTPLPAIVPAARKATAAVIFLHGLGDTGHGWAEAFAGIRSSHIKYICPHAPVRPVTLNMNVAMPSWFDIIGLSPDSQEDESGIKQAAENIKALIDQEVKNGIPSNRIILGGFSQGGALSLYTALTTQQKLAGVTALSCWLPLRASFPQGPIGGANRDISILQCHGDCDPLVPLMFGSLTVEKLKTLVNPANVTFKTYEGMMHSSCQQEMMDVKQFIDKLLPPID
PAFAH2 inh = inhibitors of human PAFAH2 | Q99487 | recombinant PAFAH2, FP-rhodamine activity probe, fluorescence polarization | inhibition, % at 3.39 µM | 0.99% of 340,000 active;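 active means inhibition above the mean over all tested compounds plus 3 SD, cut at about 30% in these data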;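 further: inhibitors block probe labeling of enzyme so polarization drops; 0% = enzyme with DMSO and 100% = wells lacking PAFAH2 protein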
LYPLA2 counter = blocks human lysophospholipase 2, a PME1 counter-screen; O95372; inhibition, % at 5.9 µM; 0.38% of 320,000 active; AID 2177; recombinant LYPLA2, FP-Rh probe fluorescence polarization;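 active means inhibition above the screen-wide mean plus 3 SD, limit set per campaign, cut at about 26% in these data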;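 further: 0% = LYPLA2 with DMSO and 100% = wells lacking LYPLA2 enzyme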
Target sequence (O95372 whole entry, looked up): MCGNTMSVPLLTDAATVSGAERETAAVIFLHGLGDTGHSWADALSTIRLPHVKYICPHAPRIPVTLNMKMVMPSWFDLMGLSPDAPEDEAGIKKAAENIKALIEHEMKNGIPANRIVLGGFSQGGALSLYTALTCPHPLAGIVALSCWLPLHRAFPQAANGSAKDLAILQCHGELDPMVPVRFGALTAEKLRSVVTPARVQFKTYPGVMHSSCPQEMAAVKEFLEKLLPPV
ZTA counter = ZTA (EBV) inhibition in EBNA-1 counter-screen; P03206; AID 2234; inhibition, % at 11 µM; ZTA-DNA binding, fluorescence polarization; 0.15% of 320,000 active; in the data active means inhibition above about 33%
Target sequence (P03206 whole entry, looked up): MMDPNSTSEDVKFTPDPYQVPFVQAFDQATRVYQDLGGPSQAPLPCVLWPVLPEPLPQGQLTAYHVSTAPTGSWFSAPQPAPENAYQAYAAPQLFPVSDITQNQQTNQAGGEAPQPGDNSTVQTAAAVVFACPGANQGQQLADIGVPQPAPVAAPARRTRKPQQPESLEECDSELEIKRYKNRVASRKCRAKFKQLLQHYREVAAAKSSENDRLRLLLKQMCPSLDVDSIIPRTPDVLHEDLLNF
pPAFAH FP inh = pPAFAH (human) enzyme inhibition; 1.5% of 330,000 active; inhibition, % at 3.39 µM; recombinant pPAFAH, FP-rhodamine probe fluorescence polarization;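 active means inhibition above the mean inhibition across the screen plus 3 SD, cut at about 25% in these data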;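 further: inhibitors block binding of the rhodamine activity-based probe so polarization drops; 0% = enzyme with DMSO and 100% = wells lacking pPAFAH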
PREPL inh = human PREPL enzyme inhibition | Q4J6C6 | recombinant PREPL, fluorescence polarization activity-based probe | inhibition, % at 5.96 µM | 0.68% of 320,000 active | AID 2751; in the data active means inhibition above about 43%;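 further: 0% = enzyme with DMSO and 100% = wells lacking enzyme; many of its hits are not listed in these tables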
An asterisk follows results filed as active; . = not tested or not shown.

SMILES	PAFAH1B3 inh	EBNA-1 inhibitor	LYPLA1 inh	PAFAH2 inh	LYPLA2 counter	ZTA counter	pPAFAH FP inh	PREPL inh
CCCOc1ccc(C(=O)CCN2CCCCC2)cc1	8	2	-3	-4	-2	5	7	-12
CCOC(=O)Cn1c(=O)n(CC(=O)OCC)c2ccccc21	-1	4	-1	6	7	8	4	-3
Cc1ccc(C2(c3ccc(C)cc3)NC(=O)N(Cc3c(C)noc3C)C2=O)cc1	9	0	0	5	9	-8	2	2
CCN(C(=O)COC(=O)c1cccnc1SC)C1CCS(=O)(=O)C1 (configuration not stated)	1	6	-4	4	-3	22	1	-1
CC(NC(=O)c1cccc(S(=O)(=O)N2CCN(Cc3ccccc3)CC2)c1)c1ccc(Br)cc1 (configuration not stated)	0	-5	-8	-11	-12	0	-6	11
Cc1[nH]c(=O)[nH]c(=O)c1S(=O)(=O)N1c2ccc(F)cc2CCC1C (configuration not stated)	2	-2	0	4	12	-2	4	-9
Cc1cc(=O)n(CCC(=O)O)c2ccccc12	4	7	6	1	11	14	3	-2
O=C(CCSc1ccc(Cl)cc1)N1CCN(S(=O)(=O)c2ccccc2)CC1	10	.	-3	12	7	9	3	1
O=C(O)c1ccc(CCCc2ccccc2)cc1	1	.	.	9	.	.	.	.
Cc1ccc(CSc2nc3c(c(=O)[nH]2)C(c2ccncc2)C2=C(CCCC2=O)N3)cc1 (configuration not stated)	7	2	-2	3	4	8	1	22
CCOC(=O)Cn1c(=O)cc(C)c2ccccc21	3	-1	2	-6	1	0	2	1
CC(O)c1cccc(NC(=O)CCCc2ccccc2)c1 (configuration not stated)	6	3	-7	0	-1	0	-7	0
O=C(Nc1nnc(SCc2ccc(F)cc2)s1)C1CC(=O)N(Cc2ccccc2)C1 (configuration not stated)	9	-10	-3	5	7	-2	18	-5
CCOC(=O)Nc1sc2c(c1C(N)=O)CCC(C)C2 (configuration not stated)	-7	8	-3	-5	0	0	5	5
O=C(CSc1nnc(-c2ccc(F)cc2)n1-c1ccccc1)NCCN1C(=O)CSC1=O	12	-3	1	4	-8	-11	5	12
Cc1ccc(NC(=O)C2CC(c3ccc(F)cc3)=NO2)cc1 (configuration not stated)	3	-4	1	12	9	-14	8	-8
O=C(CCSc1ccc(Cl)cc1)Nc1cccnc1	-1	10	0	2	5	2	2	2
Cc1ccc(Nc2nnc(SCC(=O)NC(Cc3c[nH]c4ccccc34)C(=O)O)s2)cc1 (configuration not stated)	9	-10	-1	7	-7	2	0	8
Cc1ccc(S(=O)(=O)N2CCN(C(=O)COC(=O)/C=C/c3cccc([N+](=O)[O-])c3)CC2)c(C)c1	-5	.	.	-11	.	.	.	.
Clc1ccc(C(c2nnnn2CCc2ccccc2)N2CCSCC2)cc1 (configuration not stated)	3	-6	-10	5	-3	11	-5	-25

The list goes on (five carried over from the part before).
SMILES	PAFAH1B3 inh	EBNA-1 inhibitor	LYPLA1 inh	PAFAH2 inh	LYPLA2 counter	ZTA counter	pPAFAH FP inh	PREPL inh
Cc1ccc(NC(=O)C2CC(c3ccc(F)cc3)=NO2)cc1 (configuration not stated)	3	-4	1	12	9	-14	8	-8
O=C(CCSc1ccc(Cl)cc1)Nc1cccnc1	-1	10	0	2	5	2	2	2
Cc1ccc(Nc2nnc(SCC(=O)NC(Cc3c[nH]c4ccccc34)C(=O)O)s2)cc1 (configuration not stated)	9	-10	-1	7	-7	2	0	8
Cc1ccc(S(=O)(=O)N2CCN(C(=O)COC(=O)/C=C/c3cccc([N+](=O)[O-])c3)CC2)c(C)c1	-5	.	.	-11	.	.	.	.
Clc1ccc(C(c2nnnn2CCc2ccccc2)N2CCSCC2)cc1 (configuration not stated)	3	-6	-10	5	-3	11	-5	-25
O=C(COC(=O)C1(c2ccc(Cl)cc2)CCCC1)NCc1ccco1	3	4	-1	1	-6	2	0	8
CCC(=O)c1ccc(OCC(=O)N2CCc3cc(OC)c(OC)cc3C2)cc1	5	4	1	1	-4	-5	-2	16
Cc1ccc(CC(CC(=O)O)C(=O)Nc2ccc(Cl)cc2)cc1 (configuration not stated)	10	6	-1	2	3	-16	0	-6
CC(C)(C)S(=O)(=O)N1C[C@@H]2CC/C=C\C/C(c3ccccc3)=C\2[C@H]1CCO	6	.	.	0	.	.	.	.
O=C(CC12CC3CC(CC(C3)C1)C2)Nc1ccc(C(=O)O)cc1	6	-2	5	5	4	5	2	4
COc1ccc(OCc2nnc(SCc3ccc(C(=O)O)cc3)o2)cc1	-2	3	3	5	6	-7	5	-11
CN1C(=O)N(C)C2(c3ccccc3)N(C)C(=O)NC12c1ccccc1 (configuration not stated)	2	-6	0	-4	-4	-2	-1	6
O=C(CN1C(=O)C2C3C=CC(C3)C2C1=O)Nc1nc(SCc2ccc(Cl)cc2)n[nH]1 (configuration not stated)	8	9	-5	-3	-6	0	2	0
CCCCCCCCOc1ccc(C(=O)O)cc1	7	.	-1	9	4	0	11	5
O=S(=O)(Nc1ccc(Cc2ccncc2)cc1)c1ccc(Cl)cc1	-1	-5	7	-1	3	-4	18	-19
O=C(NCc1ccc(Cl)cc1)C(=O)NCC1OCCCN1S(=O)(=O)c1cccs1 (configuration not stated)	-3	-6	-2	-12	0	-15	19	-8
O=Cc1c(NCCc2ccc(F)cc2)c2ccccc2[nH]c1=O	11	-3	2	-4	2	5	7	-13
Cc1cc2ncn(C3CC(=O)N(Cc4ccc(N5CCCC5=O)cc4)C3=O)c2cc1C (configuration not stated)	0	-8	0	-1	-5	0	-2	7
CC(C)CC(NC(N)=O)C(=O)NCCc1ccc(Cl)cc1 (configuration not stated)	13	-4	1	-2	6	-9	0	13
COc1cccc2cc(C(=O)CS(=O)(=O)c3ccc(Cl)cc3)c(=O)oc12	-2	1	3	11	8	-6	21	10
O=C(O)c1cc(-c2ccccc2)n(-c2ccc(F)cc2)n1	1	-1	-1	-3	2	-20	-2	9
CCCCC(CC)CNC(=O)C(=O)C1C(=O)Nc2ccccc21 (configuration not stated)	7	-6	2	15	-2	0	3	1
O=C(Cc1c[nH]c2ccccc12)N[C@@H](Cc1c[nH]c2ccccc12)C(=O)O	0	-5	4	-1	8	-8	2	7
Cc1ccc(S(=O)(=O)c2ccc(Cl)cc2)cc1S(=O)(=O)NC(C(=O)O)C(C)C (configuration not stated)	-2	-10	-3	0	-10	5	2	8
O=C(NCC1(c2ccccc2)CCCC1)c1ccccc1Br	-2	-3	-5	-10	-11	2	8	2
Cc1ccc(S(=O)(=O)N2[C@@H](c3ccc(Br)cc3)C(C(=O)O)=CC[C@H]2c2cccc(Cl)c2)cc1	14	.	.	2	.	.	-4	5
O=C(/C=C/c1ccc(F)cc1)N1CCCN(C(=O)/C=C/c2ccc(F)cc2)CC1	-5	-12	-3	2	1	-21	3	-27
COc1ccccc1CNc1cc(CSc2ccc(Cl)cc2)nc(C)n1	-1	-6	-3	-2	-1	-10	5	-53
O=c1[nH]c(C2CCCN(S(=O)(=O)c3ccccc3)C2)nc2c1nnn2Cc1ccccc1 (configuration not stated)	5	18	0	10	-1	-4	4	5
Brc1ccc2nc(CSc3ncn[nH]3)cn2c1	5	-1	1	-3	-5	4	0	-4
CC(Cn1cncn1)C(=O)N1CCN(S(=O)(=O)c2ccc(Cl)cc2)CC1 (configuration not stated)	7	8	1	-1	-2	0	2	-2
Cc1cc2c(cc1S(=O)(=O)NCCc1ccc(Cl)cc1)OCC(=O)N2	0	9	-3	-4	2	4	5	-34
CCCC(=O)NC(=S)Nc1cccc(NC(=O)c2ccc(Cl)cc2Cl)c1	7	-5	-2	0	22	4	-3	0
c1ccc2c(SCc3cn4cccnc4n3)ncnc2c1	13	-3	1	0	10	-9	0	4
Cc1ccc(S(=O)(=O)NCCSc2ccccc2)cc1[N+](=O)[O-]	-1	5	-2	8	0	-4	8	-2
CCOc1ccc(S(=O)(=O)NNC(=S)Nc2ccc(Br)cc2)cc1	1	-5	-4	8	-4	3	-2	-4
CCOC(=O)Cn1c2c(c(=N)c3ccccc31)CCC2	10	-4	0	2	-4	-15	0	16
O=C1COc2ccc(S(=O)(=O)NCc3ccc(Cl)cc3)cc2N1	5	-11	0	-3	1	-10	2	-5
OCCCn1c(CCNc2nc(-c3ccc(F)cc3)cs2)nc2cc(C(F)(F)F)ccc21	15	-2	-2	6	-4	-10	15	18
OCCOCCn1c(C(CO)Nc2nc(-c3ccc(Cl)cc3)cs2)nc2ccccc21 (configuration not stated)	0	4	0	1	-7	-5	10	27
Nc1nc(SCc2ccc(Br)cc2)[nH]c(=O)c1-c1ccccc1	4	-1	-1	-7	-2	2	3	10
O=C(O)c1cnn(-c2nc(-c3cccc([N+](=O)[O-])c3)cs2)c1C(F)(F)F	4	-8	-1	-8	2	-10	7	16
CC(NC(=O)CSc1n[nH]c(=O)n1C1CC1)C12CC3CC(CC(C3)C1)C2 (configuration not stated)	4	8	4	5	2	2	1	-2
Cc1ccc(SCc2ccc(C(=O)N3CCCC3)cc2)cc1	7	6	4	-3	7	-13	5	13
Cc1noc(C)c1COC(=O)Cc1ccc(Cl)cc1	4	8	-2	6	2	-14	5	4

Part of the list above with just PREPL inh.
| compound | PREPL inh |
| --- | --- |
| Nc1nc(SCc2ccc(Br)cc2)[nH]c(=O)c1-c1ccccc1 | 10 |
| O=C(O)c1cnn(-c2nc(-c3cccc([N+](=O)[O-])c3)cs2)c1C(F)(F)F | 16 |
| CC(NC(=O)CSc1n[nH]c(=O)n1C1CC1)C12CC3CC(CC(C3)C1)C2 (configuration not stated) | -2 |

Other compounds:
SMILES	PAFAH1B3 inh	EBNA-1 inhibitor	LYPLA1 inh	PAFAH2 inh	LYPLA2 counter	ZTA counter	pPAFAH FP inh	PREPL inh
O=C(CCC(=O)N1CCN(S(=O)(=O)c2ccc(Cl)cc2)CC1)NCc1ccccc1	9	4	2	-1	-3	11	6	8
O=C(COC(=O)C1(c2ccc(F)cc2)CCCC1)Nc1ncc(C(F)(F)F)cc1Cl	7	5	-1	1	0	1	5	-2
O=C(O)CC1=C(Nc2ccccc2)C(=O)N(c2ccccc2)C1c1ccc(Cl)cc1 (configuration not stated)	1	0	-3	4	-3	-9	6	6
O=C(OCC(=O)N1CCN(S(=O)(=O)c2ccc(Cl)cc2)CC1)C1CC1	2	.	4	0	2	-19	7	13
CN1CCN(C(=O)C23CC4CC(C2)CC(c2ccccc2)(C4)C3)CC1	13	1	-4	12	2	-17	6	0
COc1ccc(NS(=O)(=O)c2cccc(C(=O)NCC(c3ccco3)N(C)C)c2)cc1 (configuration not stated)	5	-12	6	4	7	-15	26*	-14
O=C(O)C(Cc1c[nH]c2ccccc12)NS(=O)(=O)c1ccc(Cl)c(C(F)(F)F)c1 (configuration not stated)	-9	2	3	3	1	0	4	3
COc1nc(N)c(S(=O)(=O)c2ccc(C)cc2)cc1C#N	-3	12	-2	-2	-6	15	0	-1
CC(C)(c1ccccc1)c1ccc(OCc2ccc(C(=O)O)o2)cc1	5	.	.	6	.	.	.	.
Cc1n[nH]c(=S)n1/N=C/c1cccc(OCc2ccccc2)c1	5	2	1	4	1	22	6	2
S=c1[nH]nc(C(c2ccccc2)C2CCCCC2)o1 (configuration not stated)	10	7	0	5	5	10	4	-3
Cc1nn(-c2ccccc2)c(Cl)c1/C=N/NC(=O)c1[nH]ncc1Br	4	4	2	7	11	-6	-2	7
Cc1ccc(S(=O)(=O)N(C)/N=C/c2ccc(N(C)C)cc2)cc1	3	-8	0	13	5	9	1	-3
CCC(NC(=O)c1[nH]c(C)c(C(C)=O)c1C)c1ccc(Br)cc1 (configuration not stated)	-6	-16	-3	3	-9	0	3	-13
O=C(Cc1ccc(-n2cnnn2)cc1)NC12CC3CC(CC(C3)C1)C2	10	-8	2	10	-3	-8	5	-5
CC(C)N(C(=S)NC1CC2CCC1C2)c1ccccc1 (configuration not stated)	7	-4	4	0	2	2	4	3
COc1cccc(OC)c1C(=O)Nc1ccc(S(=O)(=O)N2CCCCC2)cc1	5	-2	-5	4	-1	-14	-1	12
O=C(CCCc1c[nH]c2ccccc12)N[C@@H](Cc1c[nH]c2ccccc12)C(=O)O	8	-5	-5	1	-5	12	4	-1
O=C1COc2ccc(S(=O)(=O)NCCc3ccc(Cl)cc3)cc2N1	-5	-5	-1	-13	-1	13	3	-31
COc1ccc(Cc2nnc(NC(=O)CS(=O)(=O)Cc3ccccc3)s2)cc1	4	-4	-5	-3	1	-18	5	4

These rows are one share of the data; rates above refer to the full screens.
